Bioassay records deposited in PubChem by several laboratories.
CBX7 AlphaScr: CBX7 chromodomain binding inhibitors, primary screen, biochemical, AlphaScreen. Chromobox protein homolog 7 (Homo sapiens), O95931. AlphaScreen His6-CBX7 / biotin-H3K27me3 peptide binding; active compounds read low. normalised signal (fraction of DMSO) (test concentration not listed). 1.1% of 66,000 active. AID 1224903, 2016; in the data active = normalised signal below about 0.5;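 also: 100 nL library stock added to about 20 µL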
Target sequence (O95931 whole entry, looked up): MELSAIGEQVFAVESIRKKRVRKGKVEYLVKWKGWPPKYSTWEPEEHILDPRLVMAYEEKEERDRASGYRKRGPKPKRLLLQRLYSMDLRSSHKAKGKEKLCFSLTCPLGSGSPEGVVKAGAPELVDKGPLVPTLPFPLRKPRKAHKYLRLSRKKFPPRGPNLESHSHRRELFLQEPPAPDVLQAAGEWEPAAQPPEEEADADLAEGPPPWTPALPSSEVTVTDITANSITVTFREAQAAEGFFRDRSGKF
CBX7 AlphaScr z-score: further read-out of CBX7 AlphaScr, marked with its call; z-score; measured here: z-score of CBX7 signal; some inactives read as strong as hits; reference of the scale not given here;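 same signal on another scale; lower means less binding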
Numbers without * were called inactive; & = joins results of further samples. A portion of the library; the hit share may differ from the screen's.

SMILES	CBX7 AlphaScr	CBX7 AlphaScr z-score
O=C(Nc1nnc(-c2ccncc2)s1)c1ccc(F)cc1	1	0.16
CC1CCN(S(=O)(=O)c2ccc3[nH]c(=O)cc(C(=O)NCc4cccnc4)c3c2)CC1	0.98	-0.38
CCS(=O)(=O)NCCc1cc2cc(C)c(C)cc2[nH]c1=O	1.1	1.3
COc1ccc(-c2cc(C(=O)Nc3cc(C)on3)no2)cc1OC	0.97	-0.7
CC(NC(=O)C1CC(=O)N(c2ccc(Cl)cc2)C1)c1ccccc1 (stereo not given)	1	0.72
Cc1cccc(CSc2nc3ccncc3n2CC(=O)Nc2ccc(C)cc2C)c1	1.1	2.1
CCOc1ccc2nc(N3CCC(C(=O)NCc4ccccc4OCC)CC3)sc2c1	1	1
CCc1cccc(C)c1NC1c2ccccc2C(=O)N1c1ccccc1C (stereo not given)	0.95	-1.8
Cc1ccc(CN(Cc2cccnc2)C(=O)Nc2ccccc2)cc1	0.97	-0.033
O=C(CC(C(=O)N1CCc2ccccc21)n1ccnc1)N1CCN(c2cccc(C(F)(F)F)c2)CC1 (stereo not given)	0.83	-3.9
CCC(=O)N1c2ccc(S(=O)(=O)CCC(=O)N3CCc4ccccc43)cc2CC1C (stereo not given)	0.95	-1.8
CC(Oc1ccc(Cl)cc1Cl)C(=O)NCCCn1ccnc1 (stereo not given)	0.96	-1.1
COc1ccc(-c2cc(C(=O)N3CCCCC3C)no2)cc1 (stereo not given)	1.3	1.7
NC(=O)c1ccc(-n2nnnc2SCC(=O)Nc2ccccc2)cc1	1.1	0.6
COCCCNC(=O)c1c(-c2ccccc2Cl)noc1C	1.1	1.2
Cc1ccc(-c2nc(SCc3ccccc3)nn2-c2nc3ccccc3s2)cc1	1.2	3.3
CC1CCN(CCCNC(=O)C2CC(=O)N(C3CCCCCC3)C2)CC1 (stereo not given)	1.1	1.1
Cc1ccn2c(NC3CCCC3)c(-c3ccccn3)nc2c1	0.43*	-15*
CC(C)c1ccc(NC(=O)CNC(=O)Cn2ccc3ccccc3c2=O)cc1	1.3	2.4
CCOc1cc2c(cc1OC)C(c1ccc(Cl)cc1)NCC2 (stereo not given)	0.98	-0.062
COc1ccc(-c2noc(CCC(=O)N3CCN(c4ccc(Cl)cc4)CC3)n2)cc1	0.89	-0.11
COc1ccc(N(CC(=O)Nc2nccs2)S(=O)(=O)c2cccnc2)cc1	0.99	-0.091
O=C(NCCCn1ccnc1)c1ccc(C#Cc2ccccc2)cc1	0.11*	-5.6*
COc1ccc(C(=O)Nc2ccc(-c3nc4ccccc4[nH]3)cc2)c(OC)c1	1.2	1.7
c1ccc(COc2ccc(Oc3nc(-c4ccccc4)nc4ccccc34)cc2)cc1	1.4	0.83
COc1ccc(Cn2c(=O)[nH]c3cc(C(=O)N4CCN(Cc5ccccc5)CC4)ccc3c2=O)cc1	0.91	-2.3
COc1ccccc1Nc1cc(C(=O)N2CCN(Cc3ccccc3)CC2)c2ccccc2n1	1	0.049
Cc1cccc(-c2noc(CN(C(=O)c3ccc(Cl)cc3)C(C)C)n2)c1	1.1	2.7
Cn1c(=O)c(Cc2ccccc2Cl)nc2ccccc21	1.1	0.92
O=C(NCc1cccs1)C1CCN(c2nc3ccccc3[nH]2)CC1	0.96	-0.51
Cc1nc2c(-c3ccccc3)c(C)nn2c(C)c1CCC(=O)NCc1ccc(Cl)cc1	1	0.71
Cc1ccc(NC(=O)c2cn(-c3ccc(C)c(C)c3)c(=O)c3ccccc23)c(Br)c1	0.95	-1.7
CCCCCCNC(=O)c1c[nH]c2ccc(S(=O)(=O)N(C)c3ccc(F)cc3)cc2c1=O	1.1	1.1
O=C(Cc1cccc2ccccc12)Nc1ccccc1-c1nc2ccccc2s1	1.3	6.6
Cc1cc(C)c(NS(=O)(=O)c2ccc3nc(-c4ccccc4)[nH]c3c2)c(C)c1	0.99	-0.0099
CC(NC(=O)NC1(c2ccccc2)CC1)C12CC3CC(CC(C3)C1)C2 (stereo not given)	0.87	-2.2
COc1ccccc1N1C(=O)CC(N2CCN(S(=O)(=O)c3ccccc3)CC2)C1=O (stereo not given)	1.1	1.9
CN(C(=O)c1cc2c(s1)-c1ccccc1OC2)c1ccccc1Cl	1.2	6.5
O=C1CC(c2ccccc2)Sc2ccccc2N1Cc1cccc(F)c1 (stereo not given)	1	0.67
Cc1ccc(OCC(=O)N(Cc2nc(-c3ccccc3)no2)C(C)C)cc1C	1.1	1.6
Cc1cc(C)c(S(=O)(=O)NCC23C=CC(O2)C2C(=O)N(Cc4ccccc4)C(=O)C23)c(C)c1 (stereo not given)	0.97	-0.75
CCC(C(=O)NC1CCCC1)n1c(SCc2cccc(C)c2)nc2ccncc21 (stereo not given)	0.85	-2.2
CCCNc1c(N2CCCC(C(=O)OCC)C2)c(=O)c1=O (stereo not given)	0.97	-0.6
Cc1nc(N2CCCC2)c2c3c(sc2n1)CCC3	1	0.38
Cc1[nH]c2ccc(F)cc2c1CCNS(=O)(=O)c1ccc(F)cc1	0.91	-1.9
O=C(CSc1nnc(CNC(=O)c2c(F)cccc2Cl)o1)NCCc1ccccc1	1.1	1.5
COc1ccc(OC)c(/C=C/c2ccc3ccccc3n2)c1	2.1	30
O=C(Cn1cc(S(=O)(=O)c2ccccc2)c(=O)c2ccccc21)Nc1ccc2c(c1)OCO2	0.94	-0.77
CC1CC(C)CN(C(=O)CSc2nnc(-c3ccc4c(c3)OCCO4)o2)C1 (stereo not given)	0.98	-0.42
CCOc1ccc2c(c1)c(=O)c(S(=O)(=O)c1ccc(F)cc1)cn2CC(=O)Nc1cccc(C)c1	1	-0.074
More compounds:
SMILES	CBX7 AlphaScr	CBX7 AlphaScr z-score
O=C(NCc1ccncc1)C(=O)Nc1cccc2ccccc12	1.1	2
CCC(C)Cn1c(/C=C/c2ccccc2)nc2ccccc21 (stereo not given)	1.2	7.9
O=C(NCCc1ccccc1)C1c2ccccc2C(=O)N1C1CCCCCC1 (stereo not given)	1	0.04
COCCCNC(=O)Cn1nc(-c2ccc(C)cc2)ccc1=O	1	2.1
Cc1ccccc1Cc1c(C)nc2nc(SCC(=O)NCc3ccccc3Cl)nn2c1C	1.1	1.1
COc1cc(Cl)c(C)cc1NC(=O)c1nn(-c2ccccc2OC)c(=O)c2ccccc12	0.97	-0.74
COc1ccc(C(=O)NC(C)C(c2cccs2)N2CCN(c3ccc(OC)cc3)CC2)cc1 (stereo not given)	0.84	-3.9
CCOc1ccc2c(c1)c(=O)c(C(=O)c1ccc(OC)cc1)cn2Cc1ccc(F)cc1	0.68	-3
O=C(CC1NC2CCCCC2NC1=O)Nc1ccccc1 (stereo not given)	1	0.64
Cc1cccc(OCCSc2nc3ccccc3n2CCO)c1	1	0.52
O=C(c1ccc2c(c1)N(Cc1ccc(F)cc1)CCS2)N1CCCCCC1	0.88	-3.8
Cc1sc2nc(-c3ccccc3Cl)n(Cc3ccccc3Cl)c(=O)c2c1C	1.2	4.7
Cc1ccc(-n2cc(-c3ccccc3)c3c(NCc4cccnc4)ncnc32)cc1Cl	0.89	-3.2
O=C(C1CCCN1S(=O)(=O)c1cccc2cccnc12)N1CCc2ccccc2C1 (stereo not given)	0.76	-7.9
c1ccc(-c2nnc(Nc3ccccn3)c3ccccc23)cc1	0.9&0.75	-2.6&-2.8
O=C(Nc1nnc(-c2ccccc2Br)s1)c1ccc2c(c1)OCO2	1.1	0.21
CCc1ccc(N(C)S(=O)(=O)c2ccc3[nH]cc(C(=O)N(CC)CC)c(=O)c3c2)cc1	0.85	-1.7
O=C(NCCc1ccc(Cl)cc1)c1ccc(CNc2c(N3CCOCC3)c(=O)c2=O)cc1	1	0.58
CCN(C(=O)c1cn(CC)c(=O)c2cc(OC)c(OC)cc12)c1ccc(C)c(C)c1	1.1	0.66
NS(=O)(=O)c1ccc(CCNS(=O)(=O)c2ccccc2)cc1	1	1.1
COc1ccc(-c2cc(C(F)(F)F)nc(-n3cncn3)n2)cc1OC	1.1	2.3
CCN1CCOC(CC(=O)Nc2ccccc2)C1=O (stereo not given)	0.97	-1.4
CCOc1ccc(CCNC(=O)CS(=O)(=O)Cc2nc(-c3ccccc3F)oc2C)cc1	0.91	-2.4
CC1CCCC(NC(=O)CN2C(=O)COc3ccc(S(=O)(=O)N4CCOCC4)cc32)C1C (stereo not given)	1	0.25
CCc1nc2c(cnn2-c2ccccc2)c(=O)n1CCc1ccccc1	0.97	-0.4
Cc1ccc(NC(=O)COc2nsnc2N2CCOCC2)cc1	1.1	0.81
O=C(Nc1sc2c(c1C(=O)N1CCCCC1)CCC2)c1ccccc1F	1.1	2.1
CCOC(=O)N1CCc2c(sc(NCc3cccnc3)c2C(=O)Nc2cc(OC)ccc2OC)C1	0.7	-15
Fc1ccccc1-c1nc(-c2cccs2)c(-c2cccs2)[nH]1	0.99	-0.014
CCCCC(=O)N1CC(=O)Nc2ccc(F)cc2C1c1ccc(F)cc1 (stereo not given)	0.88	-0.48
CCN(CC)C(=O)Cn1cnc2sc(C(=O)Nc3cc(C)ccc3OC)c(C)c2c1=O	1	0.89
COc1ccc(CCN2CC(C(=O)NCc3ccc(F)cc3)CC2=O)cc1OC (stereo not given)	1	1.2
Cc1ccc(Nc2nnc(-c3ccc(C)c(S(=O)(=O)N(C)C)c3)c3ccccc23)cc1	0.92	-1.6
CCc1ccccc1Nc1cc(C)nc2ncnn12	0.95	-1.1
CC(C)c1ccc(N(C)S(=O)(=O)c2ccc3[nH]cc(C(=O)N4CCCCC4)c(=O)c3c2)cc1	1.1	1.8
Cc1ccnc(SCc2cn3cccnc3n2)n1	1	0.3
COc1ccccc1CNC(=O)CSc1nc2nc(C)c(Cc3ccc(C)cc3)c(C)n2n1	1.3	1.5
CCOc1ccc(NC(=O)C2CCN(S(=O)(=O)c3cccc4cccnc34)CC2)cc1	1	0.19
CCOC(=O)CSc1nc2nc(C)cc(C)c2c(=O)[nH]1	1	0.58
Cc1ccc2nc(NC(=O)c3ccc(S(=O)(=O)N4CCCC4)cc3)sc2c1	0.95	-0.86

Shown in markdown: 16 of the compounds above
| compound | CBX7 AlphaScr | CBX7 AlphaScr z-score |
| --- | --- | --- |
| CCN1CCOC(CC(=O)Nc2ccccc2)C1=O (stereo not given) | 0.97 | -1.4 |
| CCOc1ccc(CCNC(=O)CS(=O)(=O)Cc2nc(-c3ccccc3F)oc2C)cc1 | 0.91 | -2.4 |
| CC1CCCC(NC(=O)CN2C(=O)COc3ccc(S(=O)(=O)N4CCOCC4)cc32)C1C (stereo not given) | 1 | 0.25 |
| CCc1nc2c(cnn2-c2ccccc2)c(=O)n1CCc1ccccc1 | 0.97 | -0.4 |
| Cc1ccc(NC(=O)COc2nsnc2N2CCOCC2)cc1 | 1.1 | 0.81 |
| O=C(Nc1sc2c(c1C(=O)N1CCCCC1)CCC2)c1ccccc1F | 1.1 | 2.1 |
| CCOC(=O)N1CCc2c(sc(NCc3cccnc3)c2C(=O)Nc2cc(OC)ccc2OC)C1 | 0.7 | -15 |
| Fc1ccccc1-c1nc(-c2cccs2)c(-c2cccs2)[nH]1 | 0.99 | -0.014 |
| CCCCC(=O)N1CC(=O)Nc2ccc(F)cc2C1c1ccc(F)cc1 (stereo not given) | 0.88 | -0.48 |
| CCN(CC)C(=O)Cn1cnc2sc(C(=O)Nc3cc(C)ccc3OC)c(C)c2c1=O | 1 | 0.89 |
| COc1ccc(CCN2CC(C(=O)NCc3ccc(F)cc3)CC2=O)cc1OC (stereo not given) | 1 | 1.2 |
| Cc1ccc(Nc2nnc(-c3ccc(C)c(S(=O)(=O)N(C)C)c3)c3ccccc23)cc1 | 0.92 | -1.6 |
| CCc1ccccc1Nc1cc(C)nc2ncnn12 | 0.95 | -1.1 |
| CC(C)c1ccc(N(C)S(=O)(=O)c2ccc3[nH]cc(C(=O)N4CCCCC4)c(=O)c3c2)cc1 | 1.1 | 1.8 |
| Cc1ccnc(SCc2cn3cccnc3n2)n1 | 1 | 0.3 |
| COc1ccccc1CNC(=O)CSc1nc2nc(C)c(Cc3ccc(C)cc3)c(C)n2n1 | 1.3 | 1.5 |

(list continues)
SMILES	CBX7 AlphaScr	CBX7 AlphaScr z-score
CCOc1ccc(NS(=O)(=O)c2ccc3c(c2)NC(=O)CC(=O)N3)cc1	0.98	-0.71
CN(C(=O)Cn1nc(Cc2cccnc2)c2ccccc2c1=O)C1CCCCC1	1.1	1.5
CCCCNC(=O)c1cnn2c(C)c(Cc3ccccc3F)c(C)nc12	1.1	2.6
COc1ccc(CN2C(=O)c3ccccc3C2C(=O)NCC2CCCO2)c(OC)c1 (stereo not given)	1	0.026
CC1(C)CC(=O)c2cc(C(=O)Nc3ccc(F)cc3)c(=O)n(-c3ccccc3)c2C1	0.91	-0.4
CCOc1ccc2nc(C)cc(Nc3ccc4c(c3)OCCO4)c2c1	0.93	-1.9
CCOC(=O)c1ccc2c(c1)N(Cc1ccccc1C)C(=O)c1ccccc1S2=O (stereo not given)	0.99	-0.44
CCC(C(=O)N1CC(=O)Nc2ccc(Cl)cc2C1c1ccc(F)cc1)c1ccccc1 (stereo not given)	1	0.052
CCOC(=O)c1cnc2cc(C(F)(F)F)ccc2c1NCCc1ccc(OC)c(OC)c1	1.2	3.4
O=C(CSc1nnc(CNC(=O)c2ccccc2F)o1)Nc1ccc(OC(F)(F)F)cc1	1	1
CCCC(=O)Nc1ccc(-c2cn3cccc(C)c3n2)cc1	1	0.38
Cc1ccc(C)c(Cn2c(CCNC(=O)c3ccc(F)cc3)nc3ccccc32)c1	1	0.11
Cc1ccc(Nc2c(-c3ccccn3)nc3ccc(Cl)cn23)cc1	0.77	-1.9
Cc1ccc(NC(=O)CCc2nnc3ccc(N4CCN(c5cccc(C)c5C)CC4)nn23)cc1	0.9	-2.7
Cc1ccc(CNC(=O)C2CCN(c3nc4ccc(Br)cc4s3)CC2)cc1	1	0.092
Cn1c(SCc2nc(-c3ccc(Br)cc3)no2)nnc1-c1cccs1	0.93	-1.5
CCOCCCNC(=O)c1c[nH]c2ccc(S(=O)(=O)Nc3cccc(C(F)(F)F)c3)cc2c1=O	0.88	-2.2
COc1cc(C2C(=O)N(C3CCCCC3)CC(=O)N2C2CCCCCCC2)ccc1OC(C)C (stereo not given)	0.94	-0.87
CC(C)=C1C2CCC1C1C(=O)N(c3nc(-c4ccc(C)cc4C)c(C)s3)C(=O)C21 (stereo not given)	1	0.16
